Bioassay records as filed in PubChem.
HTT prom inh – HTT promoter inhibition; AID 1508623; HEK293 HTT promoter firefly luciferase reporter (activity 0% = vehicle and -100% = no light), 24 h; 48,000 tested, 0.93% active; Potency, µM (series often up to 57.5 µM), without a hit: at the top dose activity change, negative = inhibition, hits mostly inhibitors; active = well fitted inhibition curve with a large enough effect; inconclusive = small, poorly fitted or top-dose-only effect; inactive = no such curve, though single readings can be large or run the other way; note: nearly all actives have a fitted effect of over 50% in size
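Quantitative HTS used concentration series of up to 57.5 uM final on HEK293 luciferase reporter cells, 24 h at 37 degrees C. Readout was Dual-Glo firefly luminescence.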
PMP22 txn – PMP22 gene transcription modulation. AID 1508649. S16 Pmp22-F2sN Schwann cells (luciferase reporters placed in the Pmp22 gene), FLuc/NLuc coincidence luminescence, 24 h. 43,000 tested, 2% active. Potency, µM (highest dose often 57.5 µM), for inactives: at the top dose activity change, negative = inhibition, most hits filed as inhibitors; active = clear falling dose curves in both reporters; inconclusive = both reporters move, but less clearly or upward; inactive = either reporter flat; the % is the NLuc reporter signal; note: % is set by controls: 0 for no effect and ±100 for the full control effect; some results filed as inactive show a strong effect at the top dose
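Schwann cells carrying the coincidence reporter were exposed to library compounds for 24 h at 37C, then lysed and read for FLuc and, after quenching, NLuc luminescence on a CCD imager.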
* marks the source's active call; other numbers are inactive results; ? = inconclusive; . = not tested or not shown; [ ] = another dose, or the depositor's remark. Potency is the fitted concentration of half-maximal effect.

smiles | HTT prom inh | PMP22 txn
COc1ccc(S(=O)(=O)c2c(Nc3cccc(C)c3C)sc(C(=O)c3ccccc3)c2N)cc1 | ? | -6%
CC(=O)Nc1ccc(NS(=O)(=O)c2cc3c4c(c2)CC(=O)N4CCC3)cc1 | -1% | 13%
CN1CCN(Cc2c(O)ccc3cc(-c4ccccc4)c(=O)oc23)CC1 | -5% | -1%
CCC(=O)Oc1c(Sc2ccc(C)cc2)c(C)nn1-c1ccccc1 | -13% | -6%
CN(C)c1ccc(-c2nc(-c3cccs3)c(-c3cccs3)[nH]2)cc1 | -47% | -66%
O=C(CSc1nc2ccccc2nc1Cc1ccccc1F)Nc1cccc(C(F)(F)F)c1 | -13% | -5%
O=S(=O)(NCCS(=O)(=O)N1CCN(c2cccc(Cl)c2)CC1)c1ccc(F)cc1 | ? | -17%
Cc1ccc(S(=O)(=O)c2cn(CC(=O)Nc3ccc4c(c3)OCO4)c3ccccc3c2=O)cc1 | -18% | -7%

Following part
smiles | HTT prom inh | PMP22 txn
COc1cc(OC)c(C2CC(=O)Nc3ccc4ccccc4c32)cc1OC (stereo not drawn) | -9% | ?
COC(=O)c1c(NC(=O)Cc2coc3ccc(C)cc23)sc2c1CCC2 | -16% | -8%
CCCCNC(=O)CCCCCn1c(=O)[nH]c2ccccc2c1=O | ? | 11%
CCCCN1C(=O)C(O)(CC(=O)c2ccc(C)cc2C)c2cc(Br)ccc21 (stereo not drawn) | ? | ?
CC(=O)c1cccc(NC(=O)c2cc(-c3ccc4c(c3)OCCO4)on2)c1 | -2% | 7%
CCS(=O)(=O)N1CC(=O)N(c2cc(C)cc(C)c2)C(C)(C(=O)NC2CCCCC2)C1 (stereo not drawn) | 15% | -2%
O=C(NCc1ccc(F)cc1)c1cc2c(=O)n3ccccc3nc2s1 | 13% | ?
CCC1=Nc2cc(C(=O)NCc3ccc(C)cc3)ccc2Sc2ccc(C)cc21 | ? | ?

Full records, quoted from the list. Order of values: HTT prom inh | PMP22 txn
CC(=O)c1cccc(NC(=O)c2cc(-c3ccc4c(c3)OCCO4)on2)c1 across the screens: -2% | 7%
COc1cc(OC)c(C2CC(=O)Nc3ccc4ccccc4c32)cc1OC (stereo not drawn) across the screens: -9% | ?

New compounds follow.
smiles | HTT prom inh | PMP22 txn
CCCCSCCCNC(=O)c1cn(C)c2ccc(S(=O)(=O)N3CCCC3)cc2c1=O | -22%[11.5 µM] | ?
Cc1ccc(N(CC(=O)NCCc2ccc(Cl)cc2)S(=O)(=O)N(C)C)cc1 | -28% | ?
COCCCNC(=O)C1CCN(c2cc(C)nc3c(-c4ccc(OC)c(OC)c4)c(C)nn23)CC1 | -11% | ?
COc1ccc(Cn2c(SCC(=O)N3CCN(c4ccc(F)cc4)CC3)nc3ccccc32)cc1 | ? | -4%
CCc1ccc(-c2[nH]nc3nc(-c4ccc(OC)cc4)cc(C(=O)NCCc4ccc(OC)c(OC)c4)c23)cc1 | -51% | -25%
CCc1ccc(-n2c(=O)c3c4c(sc3n(CC(=O)NCCCOC)c2=O)CCC4)cc1 | -15% | 5%
Cc1cc(C)cc(NC(=O)CSc2oc(-c3ccccc3)nc2S(=O)(=O)c2ccccc2)c1 | -22% | ?
Cc1ccc(-n2c(SCC(=O)Nc3cccc(C)c3)nc3c(oc4ccccc43)c2=O)cc1 | -7% | -16%

Next section:
smiles | HTT prom inh | PMP22 txn
COc1cc2c(cc1NC(=O)COc1ccc(Cl)cc1Br)oc1ccccc12 | -5% | ?
O=C(CCc1cn(Cc2ccccc2F)c2ccccc12)NCc1ccc(Cl)cc1 | ? | -23%
O=C(c1cc2cc3ccc(Cl)cc3nc2o1)N1CCN(c2cccc(Cl)c2)CC1 | 5% | 2%
Cc1ccc(S(=O)(=O)N(CC(=O)Nc2ccc(Cl)cc2Cl)c2ccccc2C)cc1 | ? | ?
Cc1ccc(NC(=O)C2CCN(C(=O)c3sc4nc[nH]c(=O)c4c3C)CC2)cc1F | 1% | -12%
CCOC(=O)c1cccc(NC(=O)C(CC(C)C)N2Cc3ccccc3C2=O)c1 (stereo not drawn) | ? | -12%
Cc1c2cnn(CC(=O)O)c(=O)c2c(C)n1Cc1cccc(Cl)c1 | -14% | 8%
CCN1CCN(Cc2c(O)ccc3cc(-c4ccc(OC)cc4)c(=O)oc23)CC1 | -20% | -31%

Among those listed so far, 7 contain a Cl atom:
smiles | HTT prom inh | PMP22 txn
O=S(=O)(NCCS(=O)(=O)N1CCN(c2cccc(Cl)c2)CC1)c1ccc(F)cc1 | ? | -17%
Cc1ccc(N(CC(=O)NCCc2ccc(Cl)cc2)S(=O)(=O)N(C)C)cc1 | -28% | ?
COc1cc2c(cc1NC(=O)COc1ccc(Cl)cc1Br)oc1ccccc12 | -5% | ?
O=C(CCc1cn(Cc2ccccc2F)c2ccccc12)NCc1ccc(Cl)cc1 | ? | -23%
O=C(c1cc2cc3ccc(Cl)cc3nc2o1)N1CCN(c2cccc(Cl)c2)CC1 | 5% | 2%
Cc1ccc(S(=O)(=O)N(CC(=O)Nc2ccc(Cl)cc2Cl)c2ccccc2C)cc1 | ? | ?
Cc1c2cnn(CC(=O)O)c(=O)c2c(C)n1Cc1cccc(Cl)c1 | -14% | 8%

Continuation:
smiles | HTT prom inh | PMP22 txn
COc1cc(NS(=O)(=O)c2cc(Br)cc3c2N(C(C)=O)C(C)C3)cc(OC)c1 (stereo not drawn) | ? | ?
COc1ccc(NC(=O)c2c(NCc3sccc3C)sc3c2CCCC3)c(OC)c1 | ? | ?
O=C(c1cccn2c(=O)c3cc(Cl)ccc3nc12)N1CCN(c2ccccc2F)CC1 | 0% | -22%
Nc1c(C(=O)Nc2ccc(Cl)c(C(F)(F)F)c2)sc2nc(-c3ccncc3)ccc12 | -24% | ?
Cc1nn(C)c(C)c1S(=O)(=O)N(CC(=O)NCCc1ccc(Cl)cc1)c1ccc(C(C)C)cc1 | -5% | -16%
O=C(CSc1nccn1Cc1ccccc1)NC1CCCC1 | 7% | -23%
O=C(Nc1ccc(F)cc1F)C1CCN(C(=O)c2cnn(-c3ccccc3)c2-n2cccc2)CC1 | ? | -21%
CCOCCCNC(=O)c1ccc2c(=O)n(CCc3ccccc3)c(=O)[nH]c2c1 | 9% | -20%

Further results.
smiles | HTT prom inh | PMP22 txn
COc1ccc(CNS(=O)(=O)c2ccc3c(c2)C(C)(C)C(=O)N3C)cc1OC | -23% | 33%
CCn1c(=O)c2cc(C(=O)N(CCN(C)C)Cc3ccccc3)sc2c2ccccc21 | -7% | ?
Cc1cccc(C(=O)Nc2ccc(N3CCC(CCN4CCOCC4)CC3)c(C(=O)O)c2)c1 | -4% | 0%
CCOC(=O)C1(C)C=C(Nc2ccc(Br)cc2)C(=O)N1c1ccccc1 (stereo not drawn) | 1% | -15%
CC(=O)N1CCCc2cc(S(=O)(=O)N3CCC(C(=O)NCc4ccccc4Cl)CC3)ccc21 | -23% | -15%
CCN(CCO)CCCC(C)Nc1ccnc2cc(Cl)ccc12 (stereo not drawn) | -9% | .
CCN(CC)S(=O)(=O)c1ccc(NC(=O)c2c(C)oc3ncnc(N4CCOCC4)c23)cc1 | -9% | -13%
Cc1cccc(NC(=O)Cn2nnc(C(=O)Nc3ccccc3Br)c2N)c1C | -3% | -1%

Further results follow:
smiles | HTT prom inh | PMP22 txn
COc1cccc(CNC(=O)C(C)n2c(=O)cc(-c3ccccc3)c3c(C)nn(C)c32)c1 (stereo not drawn) | 0% | 1%
O=C(O)[C@H]1O[C@H](Oc2cc3oc(-c4ccccc4)cc(=O)c3c(O)c2O)[C@H](O)[C@@H](O)[C@H]1O | 17% | .
COc1ccc(C)cc1NC(=O)CN1C(=O)CSc2ccc(S(=O)(=O)N3CCCC3)cc21 | -10% | -30%
CCOc1ccc(OCC)c(NC(=O)c2cc(-c3cccs3)nc3ccccc23)c1 | 3% | 3%
CCCNC(=O)CCn1nc(-c2ccc(C)cc2)c2ccccc2c1=O | -7% | -8%
CCCCn1c(=O)c2oc3ccccc3c2n(CC(=O)Nc2ccc(CC)cc2)c1=O | -11% | 14µM*
O=C(c1cc(-c2ccc(Br)cc2)n[nH]1)N1CCN(S(=O)(=O)c2ccc(Cl)s2)CC1 | 6% | -3%
COc1ccc(C(C(=O)NCc2ccccc2)N(C(=O)Cn2nnc3ccccc32)c2ccc(OC)cc2)cc1 (stereo not drawn) | -11% | ?

(cont.)
smiles | HTT prom inh | PMP22 txn
COc1ccc(NC(=O)CN(c2ccc(C)cc2)S(=O)(=O)c2cccs2)cc1OC | -2% | 2%
CCOc1ccc(NC(=O)CN2C(=O)C(c3ccc(Cl)cc3)=NC2(C)C)cc1 | ? | 6%
Cc1ccc(SCC(=O)Nc2ccc3oc(-c4cccc(C)c4)nc3c2)cc1 | -10% | 0%
Cc1cc(C)c(NC(=O)Cn2c(=O)nc(-c3ccccc3)c3cc(Cl)ccc32)c(C)c1 | -11% | 51%
CCOC(=O)C(CC)Sc1ccc2nnc(CCNS(=O)(=O)c3ccc(C)cc3)n2n1 (stereo not drawn) | -6% | -26%
CC(=O)NNc1ncnc2c1cnn2-c1ccccc1 | -9% | -23%
CCOc1ccc(NC(=O)N(C(C)C)C2CCN(C(C)=O)CC2)cc1 | -17% | 4%
Cc1ccc(Cl)cc1N1CCN(C(=O)c2cnn(C)c2C2CCN(C(=O)OC(C)(C)C)CC2)CC1 | ? | ?

The results go on:
smiles | HTT prom inh | PMP22 txn
CCOc1ccc(CCNC(=O)CCCc2nnc3n(CC)c(=O)c4sccc4n23)cc1 | -9% | 9%
CCc1nnc2c(Nc3cccc(F)c3)nc3ccc(C(=O)c4ccccc4)cc3n12 | ? | -8%
O=S(=O)(c1ccc(F)cc1)N(Cc1nc(-c2ccc(Cl)cc2)no1)C1CCCCC1 | -30% | 0%
COc1ccc(CCNC(=O)c2ccc(Cn3c(=O)c4cccn4c4cccnc43)cc2)cc1OC | -8% | -24%
COc1ccc(NC(=O)Cn2nc3c(cc2=O)CCCC3)cc1Cl | -13% | -8%
CC(C)COc1ccc(C(=O)Nc2nnc(S(=O)(=O)N(C)Cc3ccco3)s2)cc1 | 7% | -7%
COCc1cc(C)nc2sc(C(=O)Nc3ccccc3O)c(N)c12 | 59%[activator] | -21%
CC[C@@]1(O)C(=O)OCc2c1cc1n(c2=O)Cc2c-1nc1ccccc1c2/C=N/OC(C)(C)C | -33% | .

(next part)
smiles | HTT prom inh | PMP22 txn
CCCCOC(=O)c1ccc(Nc2nc3ccccc3c3nnc(C)n23)cc1 | 6% | -21%
COc1ccc(CCN2CCN(CCCc3ccccc3)CC2)cc1OC | -2% | .
Nc1nc(F)nc2c1ncn2[C@@H]1O[C@H](CO)[C@@H](O)[C@@H]1O | ? | .
COc1ccc(Cc2cnc(N)nc2N)cc1OC | -2% | .
CSc1nc(Nc2ccc(F)cc2)cc(-c2ccccc2)n1 | ? | ?
Cc1ccc(NC(=O)C2CCCN2S(=O)(=O)c2cccc3cccnc23)cc1 (stereo not drawn) | -16% | -6%
COc1ccc(OC)c(NC(=O)c2cc(=O)c3c(C)cc(C)cc3o2)c1 | -12%[11.5 µM] | -15%
OCCCc1nc2ccccc2n1CCCCOc1ccccc1 | -31% | 0%

Going on with the list:
smiles | HTT prom inh | PMP22 txn
Cc1ccc(NC(=O)CCCn2nc(C)c3c(C)n(-c4ccccc4)nc3c2=O)cc1Cl | -4% | ?
Cc1ccc(Cn2c(SCc3ccc(C(=O)NC4CCCCC4)cc3)nc3ccncc32)cc1 | ? | ?
CC(C)CC(=O)Nc1nnc2n1CCS2 | -6% | -22%
CCc1ccc(NC(=O)C(=O)NCCc2sc3nc(-c4ccc(OC)cc4)nn3c2C)cc1 | -10% | -14%
c1ccc(N2CCN(Cc3cccn3-c3nnc(N4CCN(C5CCCCC5)CC4)s3)CC2)cc1 | -8% | -4%
CCC(=C(c1ccccc1)c1ccc(OCCN(C)C)cc1)c1ccccc1 | -16% | .
CCc1ccc(-n2c(=O)c3c(C)c(C(=O)N(C)C)sc3n(Cc3ccccc3C#N)c2=O)cc1 | -1% | ?
CCOc1cccc(CC(=O)N2CCc3c([nH]c4ccccc34)C2c2ccc(F)cc2)c1OCC (stereo not drawn) | -26% | 4%

(further entries)
smiles | HTT prom inh | PMP22 txn
COc1cccc(C2CC(=O)Nc3c2c(=O)nc2c(C)cccn32)c1 (stereo not drawn) | -11% | 12%
Cc1ccc(C(c2sc3nc(-c4ccco4)nn3c2O)N2CCOCC2)cc1 (stereo not drawn) | 3% | 43%
COc1ccc(C)cc1NS(=O)(=O)c1ccc2c3c(cccc13)C(=O)N2 | ? | -17%
CNC(=O)c1c(NC(=O)c2cc(=O)c3ccccc3o2)sc2c1CCC2 | 5% | -7%
CCOC(=O)c1c(C)oc2ncnc(Nc3ccc(OC)cc3OC)c12 | -11% | 2%
CCOc1ccc(-c2cnc(NCc3cccc(Cl)c3)n2C)cc1 | -3% | -43%
Cc1ccc2onc(CNC(=O)N3CCN(c4cccc(C)c4C)CC3)c2c1 | -47% | -22%
CCOc1ccc(-c2cccc(NS(=O)(=O)c3ccc(C)s3)c2)nn1 | ? | -3%
COc1ccc(CC(=O)NCCc2csc(-c3ccc(C(F)(F)F)cc3)n2)cc1 | -7% | -19%
COc1cccc(CNC(=O)c2cc3n(n2)CCCN(Cc2ccc(C)cc2)C3=O)c1OC | ? | ?
CCOc1ccc(-c2cc3c(=O)n(CC(=O)NCc4ccccc4)ccn3n2)cc1 | 33%[activator] | -10%
